# PINK1 modulator: PINK1 expression modulation | Potency, µM (titrated, usually from 76.6 µM), for inactives: top-dose activation (PINK1 increase), usual class: activators | PINK1 immunofluorescence, high-content cytometry, 24 h | 410,000 tested, 0.2% active; active = well fitted activation curve with a large enough effect; inconclusive = small, poorly fitted or top-dose-only effect; inactive = flat fitted curve, though single readings scatter; cell line not stated here;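 note: potency is the fitted concentration of half-maximal effect; % of control where 0% means no effect; nearly all actives have a fitted effect of over 65% in size; a mitochondrial uncoupler was the plate control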
#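 PINK1 protein level read as immunofluorescence by microplate cytometer in a fixed, stained stable cell line after 24 h exposure to five compound concentrations, with CCCP as control.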
# Menin MLL FP FL: menin-MLL binding inhibition, fluorescein peptide. Fluorescence polarization, fluorescein-MLL peptide displacement from menin. 290,000 tested, under 10 active. FP activity change, % at 61.4 µM; inconclusive = falling polarisation curve, or a change in total fluorescence; inactive = total fluorescence flat and polarisation flat or rising; no compound was filed as active; the % refers to the polarisation; negative = inhibition;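 note: % of control where 0% means no effect; inhibitors lower the polarisation; unlabelled MLL peptide was the positive control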
# gsp ag: agonists of gsp mutant (McCune-Albright syndrome); gsp mutant cells, cAMP HTRF, 30 min; control for the full effect not named in the record; Potency, µM (series often up to 76.9 µM), for inactives: at the highest dose activation (cAMP increase), usual class: activators; 340,000 tested, 0.13% active; AID 624287; active = well fitted activation curve with a large enough effect; inconclusive = small, poorly fitted or top-dose-only effect, or another doubt; inactive = no such curve, though single readings can be large or run the other way; cell line not stated here;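 note: phosphodiesterase inhibitor Ro 20-1724 added with compounds to block cAMP breakdown; potency is the fitted concentration of half-maximal effect; nearly all actives have a fitted effect of over 60% in size; about a fifth of the inactives were tested at one dose only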
#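 Cells in DMEM/10% FBS with G418 were pretreated with compounds in DMSO plus […] (300 uM stock) for 30 min at 37C. cAMP was measured by HTRF (cAMP-d2 plus anti-cAMP antibody-K) after 30 min at room temperature.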
# D2 agonist: agonists of human D2 dopamine receptor (beta-arrestin); 360,000 tested, 0.084% active; activation, % (test concentration not listed); P14416; DiscoveRx PathHunter D2 beta-arrestin, luminescence, 90 min; 100% = 57 uM dopamine signal; in the data active = activation above about 40%; inconclusive = about 15% to 40%; inactive = below about 15%; note: compound concentration not given in the record; the text of the record calls up to 30% inactive
# Target sequence (P14416 whole entry, looked up): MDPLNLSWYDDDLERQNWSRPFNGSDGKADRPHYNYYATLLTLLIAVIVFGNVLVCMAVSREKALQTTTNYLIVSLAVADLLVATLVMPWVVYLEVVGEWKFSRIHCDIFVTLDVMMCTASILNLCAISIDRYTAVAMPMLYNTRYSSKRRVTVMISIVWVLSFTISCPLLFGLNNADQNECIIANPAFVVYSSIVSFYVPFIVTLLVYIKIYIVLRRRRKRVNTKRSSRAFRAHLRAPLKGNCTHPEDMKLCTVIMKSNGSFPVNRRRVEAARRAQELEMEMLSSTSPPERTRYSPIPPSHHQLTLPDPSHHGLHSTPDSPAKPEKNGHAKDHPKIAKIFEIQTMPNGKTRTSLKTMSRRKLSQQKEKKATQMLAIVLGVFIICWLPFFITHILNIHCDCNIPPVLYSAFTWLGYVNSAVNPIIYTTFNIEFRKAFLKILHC
#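 DiscoveRx PathHunter D2 beta-arrestin cells (2,100/well) attached overnight, then compound-stimulated 90 min at 37 C in HBSS/10 mM HEPES/0.1% Tween-20 buffer; beta-galactosidase complementation read by luminescence after 1 h at ambient temperature. Dopamine 57 uM final (EC100) as control.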
# Sfp PPTase inh: Sfp phosphopantetheinyl transferase inhibition; Q9F4F7; 310,000 tested, 3.5% active; Biochemical Sfp PPTase activity, qHTS; Potency, µM, for inactives: max response, negative = inhibition, hits mostly inhibitors; active = well fitted inhibition curve with a large enough effect; inconclusive = small, poorly fitted or top-dose-only effect, or another doubt; inactive = no such curve, though single readings can be large or run the other way;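 note: the enzyme is Sfp with the accession as filed and its product quenches rhodamine fluorescence; potency is the fitted concentration of half-maximal effect; 0% = enzyme reaction without inhibitor and -100% = no enzyme wells; top concentration of the series not given in the record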
#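 Sfp 15 nM + cpd, 15 min RT; start w/ rhodamine-CoA 5 uM, BHQ-2-YbbR 12.5 uM (final); 50 mM Hepes pH 7.6, 10 mM MgCl2, 0.01% NP-40, 0.01% BSA; read 525/598 nm at 0 and 30 min.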
# ClpP mod: qHTS Assay for Activators of ClpP; Potency, µM (titrated, usually from 57.5 µM), for inactives: at the highest dose activity change, negative = active; purified B. subtilis ClpP, FRET peptide cleavage, 20 min; ATP-dependent Clp protease proteolytic subunit (Bacillus subtilis (strain 168)), P80244; 340,000 tested, 1.9% active; active = well fitted falling curve with a large enough effect; inconclusive = small, poorly fitted or top-dose-only effect; inactive = no such curve, though single readings can be large or run the other way; note: potency is the fitted concentration of half-maximal effect; the source files actives as falling curves though it sought activators and does not explain the sign; nearly all actives have a fitted effect of over 65% in size; many hits overshoot -100%
# Target sequence (P80244 whole entry, looked up): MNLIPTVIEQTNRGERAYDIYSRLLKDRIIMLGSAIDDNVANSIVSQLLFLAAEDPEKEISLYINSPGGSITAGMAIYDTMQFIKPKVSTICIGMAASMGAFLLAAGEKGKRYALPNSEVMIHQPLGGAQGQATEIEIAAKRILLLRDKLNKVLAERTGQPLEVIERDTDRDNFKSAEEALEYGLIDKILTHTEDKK
#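 Purified B. subtilis ClpP, 10 microg/mL final in Tris/HCl pH8 with KCl, BSA, glycerol and Tween-20, cleaved an Abz/nitrotyrosine-quenched decapeptide. Fluorescence (ex 320, em 430) was read at 0 and 20 min at room temperature. Delta was normalized to 5.8 microM ADEP and DMSO/no-enzyme controls.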
# gsp antagonist: gsp mutant antagonism | AID 624288 | 340,000 tested, 0.4% active | Potency, µM (titrated, usually from 76.9 µM), for inactives: at the highest dose activity change, negative = inhibition, hits mostly inhibitors | gsp-mutant cells, cAMP HTRF, 30 min; control for the full effect not named in the record; active = falling curve of any shape with a large fitted effect; inconclusive = falling curve, mostly with a smaller effect; inactive = flat or rising curve; cell line not stated here;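 note: intracellular cAMP measured with PDE inhibitor Ro 20-1724 present during compound exposure; potency is the fitted concentration of half-maximal effect; % is set by controls: 0 for no effect and ±100 for the full control effect; nearly all actives have a fitted effect of over 65% in size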
#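 G418-selected cells were plated in DMEM/10% FBS for 16-24 h at 37C, then treated with compounds plus the PDE inhibitor […] (300 uM solution added) for 30 min at 37C. Intracellular cAMP was measured by HTRF after 30 min lysis at room temperature.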
# Numbers without * were called inactive; ? = inconclusive; . = no result given; & = joins results of further samples; [ ] = remark or other dose.
SMILES	D2 agonist	gsp antagonist	ClpP mod	gsp ag	Sfp PPTase inh	PINK1 modulator	Menin MLL FP FL
C[C@@H]1CN(S(=O)(=O)C(C)(C)C)[C@H](CCO)/C1=C\c1ccccc1	-0.2	3%	1.1%	.	.	0.7%	.
CCC(CC)C(=O)Nc1nnc(S(=O)(=O)N2CCCCCC2)s1	0.0	4%	-0.9%&-2.4%	?	12%	7.0%&3.3%	-2.0
Cc1ccc(CSCC(=O)NCc2cccs2)cc1	0.1	-3%	-1.0%	15%[15.4 µM]	-9%	0.9%	0.4
Cc1oc(-c2ccccc2F)nc1CS(=O)CC(=O)NCCN1CCCCC1C (stereo unspecified)	1.6	28%	-6.9%	-26%	8%	-1.3%	.
CCNS(=O)(=O)c1ccc(CCC(=O)NCCC2=CCCCC2)cc1	-0.5	6%	1.7%	-41%[inhibitor]	0%	-2.5%	1.3
Cc1ccc(C(=O)N2CCN(C(=O)c3ccco3)CC2)cc1NC(=O)c1ccco1	5.2	4%	.	-25%	1%	-0.9%	11
COc1ccc(NC(=O)CN2CCc3ccccc3C2)cc1OC	-4.7	4%	.	-13%[15.4 µM]	21%	3.5%	0.7
Cc1cc(O)c(C(C[N+](=O)[O-])c2ccc(Cl)cc2Cl)c(=O)o1 (stereo unspecified)	-3.5	-28%	-1.6%	4%	?	3.7%[38.3 µM]	8.9
CNC(=O)C(C)NS(=O)(=O)c1ccc(F)cc1 (stereo unspecified)	0.8	6%	-0.9%	-5%	17%	8.6%[38.3 µM]	-0.3
CS(=O)(=O)C1=NSC2=NC(=O)/C(=C\c3cccn3-c3ccccc3Cl)C(=N)N21	-7.6	-1%	-0.8%	-11%	-5%	1.0%	?
Cc1ccc(S(=O)(=O)N2CCCCC2CCNC(=O)C(=O)NC2CC2)cc1 (stereo unspecified)	-0.3	-3%	-1.1%	21%	.	2.8%	.
CCOc1cc(N2CCOCC2)c(OCC)cc1NC(=O)c1ccccc1N1CCCC1=O	1.3	.	-1.9%	-4%	.	0.3%	.
Cc1cccc(S(=O)(=O)NNC(=O)Cc2cccn2C)c1	-5.3	14%	.	8%[15.4 µM]	12%	4.2%	-7.8
CC1C2CC(C(S(=O)(=O)N3CCOCC3)C2=O)C1(C)C (stereo unspecified)	-1.6	15%	2.2%	-10%	-1%	-1.5%	-7.8
Cc1ccc(S(=O)(=O)NCCN=C(CN2CCOCC2)NS(=O)(=O)c2ccc(C)cc2)cc1	-2.1	3%	0.4%	1%	8%	-1.7%	-0.8
Cc1cc([N+](=O)[O-])nn1CC(=O)Nc1ccc(F)cc1	-3.2	11%	1.1%	10%[15.4 µM]	22%	-0.1%	-1.4
CCOc1ccc(NC(=O)CCS(=O)(=O)c2ccc3c(c2)CCCN3C(=O)CC)cc1	-1.7	1%	-0.3%	-37%[inhibitor]	2%	-1.4%	-0.5
O=C(O)c1ccc(/C=N/NC(=O)C(O)(c2ccccc2)c2ccccc2)cc1	0.8	-5%	.	-2%	5%	-1.5%	1.6
CC(=O)Nc1cccc(NC(=S)Nc2cccc3ccccc23)c1	8.0	-8%	3.4%	0%	7%	-0.5%	.
CCn1cc(CN2CCc3c([nH]c4ccccc34)C2c2cccc(OC)c2)c(C)n1 (stereo unspecified)	-4.0	4%	.	0%[15.4 µM]	0%	5.0%	0.0
C=CCOc1cccc(C2NC(=O)c3ccccc3O2)c1 (stereo unspecified)	-1.2	18%	.	?	-2%	0.7%	-1.5
COc1ccc(S(=O)(=O)NCCSCc2ccco2)cc1C	-1.3	-22%	0.4%	22%	.	2.0%[38.3 µM]	.
COCCCNC(=O)C(=O)Nc1cc2c3c(c1)CCC(=O)N3CCC2	-6.0	13%	2.4%	19%	6%	-0.6%	-7.3
COc1cc(OC)c(C#N)c(S(=O)(=O)Cc2ccccc2)c1	0.8	-15%	-12%	0%	11%	0.1%	-0.7
COc1cccc(NC(=O)CN(C)C(C)C(=O)Nc2ccc(C#N)cc2)c1 (stereo unspecified)	-2.0	-2%	.	5%[15.4 µM]	10%	1.1%	-0.5
O=c1oc2ccccc2c(O)c1/C=C1\C=Nc2ccccc21	1.1	-16%	-2.8%	-37%[inhibitor]	-5%	-2.1%	10
CCOc1ccc(NC(=O)Cn2c(=O)oc3cc(Cl)ccc32)cc1	-4.1	-6%	-5.5%	-14%	10%	0.7%	0.8
CC1c2cc3c(cc2CCN1C(=O)c1ccc(Br)cc1)OCCCO3 (stereo unspecified)	-3.7	6%	-1.0%	?	-12%	2.7%	.
CCC(=O)Nc1ccc(C(=O)Nc2ccc(Br)cc2F)cc1	-0.7	15%	-0.6%	-73%[inhibitor]	-2%	0.3%	-1.5
Cc1nc2ccc(S(=O)(=O)NC(C(=O)N3CCn4c3nc3ccccc34)C(C)C)cc2s1 (stereo unspecified)	-3.1	1%	-3.8%	-49%[inhibitor]	23%	1.2%	4.5
CC1Cc2cc(S(=O)(=O)N3CCC(C(=O)N(C)Cc4ccccc4)CC3)ccc2N1C(=O)C1CC1 (stereo unspecified)	6.1	-23%	-0.5%	-27%	12%	-1.1%	0.9
COc1cc(Cl)c(C)cc1NC(=O)COC(=O)C1CC1C (stereo unspecified)	-5.5	1%	1.4%	2%	.	1.4%	.
Cc1[nH]n2c(=O)c3c(nc2c1-c1ccccc1)CCC3	-0.6	2%	32µM*	6%	10%	-1.9%	2.0
Cc1ccc(SC(C)C(=O)NCc2ccc(F)cc2)cc1 (stereo unspecified)	-2.0	2%	1.9%	-4%[15.4 µM]	26%	2.1%	1.6
Cc1ccc(SCC(=O)Nc2ccc(C(=O)Nc3ccc(O)cc3)cc2)cc1	-3.0	10%	.	-3%[15.4 µM]	9%	26%	12
O=C(CSc1nnnn1C1CCCC1)Nc1ccc(F)cc1	-2.5	11%	0.8%	0%	19%	0.7%	2.5
COc1cc(C(=O)Nc2cc(C(F)(F)F)ccc2-n2cncn2)cc(OC)c1OC	-1.1	4%	.	-21%[15.4 µM]	10%	1.9%	-1.0
C/C(=N\NC(=S)Nc1cccc(C)c1)c1ccco1	5.5	-1%	.	-53%[inhibitor]	9%	-1.2%	0.6
O=C(c1ccc(S(=O)(=O)N2CCOCC2)cc1)N1CCN(c2ccc(F)cc2)CC1	-0.7	-7%	-0.2%	-42%[inhibitor]	3%	-1.0%	5.5
CCOC(=O)C1=C(C)NC2=C(C(=O)CCC2)C1c1cccnc1 (stereo unspecified)	-0.5	6%	?	-30%	4%	-0.2%[38.3 µM]	-0.6
Cc1ccc(NC(=O)CCn2ccc([N+](=O)[O-])n2)nc1	-1.3	10%	2.0%	1%	-19%	-2.2%	5.0
CCc1cccc(C)c1NC(=O)CCCC(=O)O	-3.3	-6%	0.1%	-8%	19%	0.4%	6.5
COc1ccccc1NC(=O)CSc1nnc(Cc2ccccc2)o1	-2.1	7%	-1.5%	-31%[inhibitor]	9%	2.7%[38.3 µM]	-8.1
O=C(NCCCN1CCCCC1)C1CCCN(c2ncnc3c2nc2n3CCCCC2)C1 (stereo unspecified)	-3.6	6%	.	35%	8%	0.7%	-2.0
O=C(NC1CC1)C1=C[C@@H](c2coc3ccccc3c2=O)C[C@@H](OCc2ccc(CO)cc2)O1	2.3	-9%	-3.2%	.	-8%	2.0%	5.9
CCC(NS(=O)(=O)c1ccc(OC)cc1)C(=O)NCCC1=CCCCC1 (stereo unspecified)	-0.2	-1%	1.1%	-31%[inhibitor]	12%	.	0.3
Cc1[nH]n(-c2ccc(Cl)cc2)c(=O)c1C=Nc1ccc(S(=O)(=O)N2CCOCC2)cc1	-0.1	11%	-3.0%	8%	23%	.	1.9
[O-]C1=N/[N+](=C/c2ccc(Cl)cc2)CC1	-5.2	-11%	0.1%	-11%	4%	-0.1%	-2.5
CCCNC(=O)Nc1nc(CC(=O)OCC)cs1	2.0	4%	-0.8%	-54%[inhibitor]	-1%	0.8%	4.7
CC1=C(C(=O)N(C)C)CC(CC(=O)NCC2CCCCC2)C(=O)N1CCC1=CCCCC1 (stereo unspecified)	-7.8	.	0.4%	-7%	.	0.1%	.
O=C(Cc1cccs1)N1CCN(S(=O)(=O)c2cccc([N+](=O)[O-])c2)CC1	4.0	5%	-1.4%	3%	2%	-1.5%	-2.6
COc1ccc(OC)c(C2c3[nH]c4ccccc4c3C[C@H]3C(=O)N(CCCOC(C)C)CC(=O)N23)c1 (stereo partly specified)	-2.2	-8%	0.1%	0%	3%	5.0%	-0.6
Cc1ccc(CN2CCNC(=O)C2CC(=O)N(C)C2CCCCC2)o1 (stereo unspecified)	-5.0	17%	.	13%[15.4 µM]	18%	-0.2%	-5.9
Cc1ccc(NC(=O)N(CCCN2CCOCC2)Cc2cc3cc4c(cc3[nH]c2=O)OCO4)cc1	-6.0	1%	-1.9%	-11%[15.4 µM]	10%	-1.1%	1.3
COc1ccc(NC(=O)CC2CC3CCC2C3)cc1S(=O)(=O)N1CCOCC1 (stereo unspecified)	1.1	-6%	1.3%	-15%	.	-0.1%	.
O=C(NC1CC2CCCC(C1)N2C(=O)Nc1ccc(Cl)c(C(F)(F)F)c1)C1CC1 (stereo unspecified)	-1.8	0%	-3.6%	9%	31%[activator]	-1.1%	5.4
CCOC(=O)CSc1nnc(CNc2ccc(F)cc2)o1	1.4	-12%	-1.1%	-65%[inhibitor]	13%	3.2%	0.0
Nc1nonc1C(=O)NCCNCc1cc(Br)ccc1OCc1ccccc1F	-2.0	-12%	2.7%	-54%[inhibitor]	?	-0.2%	7.2
O=[N+]([O-])c1ccc2c(c1)C(=NO)c1cc(Cl)c(Cl)cc1-2	2.7	-22%	1.0%	28%	.	-6.0%	.
